HNF4A DNA FP = change in binding of human HNF4 alpha to DNA. P41235. HNF4a-FITC DNA binding, fluorescence polarization, 1 h. activity change, % at 10 µM. 360,000 tested, 0.3% active; in the data active means activity change above about 30%, passing the limit was not always enough;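 further: controls were the assay level and a saturating level of protein; the project sought stronger binding though the title names inhibitors; some compounds called inactive have numbers as strong as hits; positive values seem to mean higher polarization but the record does not say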
Target sequence (P41235 whole entry, looked up): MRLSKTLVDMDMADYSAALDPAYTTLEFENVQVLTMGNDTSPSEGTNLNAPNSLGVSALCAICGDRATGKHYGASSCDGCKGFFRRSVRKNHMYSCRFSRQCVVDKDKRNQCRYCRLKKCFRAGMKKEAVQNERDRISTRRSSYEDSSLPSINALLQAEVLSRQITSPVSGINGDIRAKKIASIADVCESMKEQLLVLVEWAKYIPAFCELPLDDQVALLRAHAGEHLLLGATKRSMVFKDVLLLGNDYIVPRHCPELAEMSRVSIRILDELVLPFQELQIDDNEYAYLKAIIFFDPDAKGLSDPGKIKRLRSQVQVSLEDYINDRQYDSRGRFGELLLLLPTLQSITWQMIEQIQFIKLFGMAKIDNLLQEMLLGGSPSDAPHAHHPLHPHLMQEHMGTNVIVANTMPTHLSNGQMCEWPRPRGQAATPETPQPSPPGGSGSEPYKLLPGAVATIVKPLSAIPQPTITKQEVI
B2AR ag = agonists of human beta-2 adrenergic receptor inducing internalization. P07550. Am2.2-beta2AR cells, FAP receptor internalization, flow cytometry; reference of the scale not given here. response, % (no concentration beside the values). 340,000 tested, 0.43% active. AID 504454;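 active means response above a set limit, near 3 SD of response in nonfluorescent compounds, cut at about 42% in these data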;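 further: stock transfer was 100 nL into about 11 µL; a reference agonist was the positive control; negative values mostly stem from fluorescent compounds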
Target sequence (P07550 whole entry, looked up): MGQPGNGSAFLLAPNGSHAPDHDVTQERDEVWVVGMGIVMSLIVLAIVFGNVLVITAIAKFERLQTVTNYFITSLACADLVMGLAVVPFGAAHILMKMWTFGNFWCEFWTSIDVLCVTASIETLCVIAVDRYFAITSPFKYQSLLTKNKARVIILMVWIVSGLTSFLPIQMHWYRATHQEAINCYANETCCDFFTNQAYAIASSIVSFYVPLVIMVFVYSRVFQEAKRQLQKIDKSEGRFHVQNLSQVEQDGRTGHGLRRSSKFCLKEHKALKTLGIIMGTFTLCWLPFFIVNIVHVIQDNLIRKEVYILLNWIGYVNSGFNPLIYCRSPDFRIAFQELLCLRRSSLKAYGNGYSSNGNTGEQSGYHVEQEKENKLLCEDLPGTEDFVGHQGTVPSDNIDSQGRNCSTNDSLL
UCH37 DUB inh = blocks the human deubiquitinase UCH37 | inhibition, % (no concentration beside the values) | Q9Y5K5 | AID 588478 | 330,000 tested, 0.33% active | purified proteasome/UCH37, Ub-AMC cleavage fluorescence;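 active means mean of two replicates above 20%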;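 further: 0% = compound-free wells with enzyme and 100% = wells lacking proteasome; stock transfer was 100 nL into about 20 µL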
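Assay system: Proteasome-bound UCH37. Buffer or medium: pH 7.4 Tris-HCl (50 mM) with ovalbumin, ATP-MgCl2, DTT. Incubation: 30 min preincubation with enzyme, 25 min cleavage at room temperature. Measured by: fluorescence, ex 355 nm, em 460 nm. Read-out basis: percent inhibition. Control set: wells without proteasome as full block, compound-free enzyme plus substrate as uninhibited.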
Vif A3G = inhibitors of Vif binding to APOBEC3G peptide, primary screen, biochemical, TR-FRET, GST-Vif 1-94, biotin-A3G peptide, dose response retest (AID 1117319). TR-FRET GST-Vif / biotin-A3G peptide binding; higher % means a stronger effect; test concentration not given here; strong numbers were not always called active. inhibition, %, or IC50 in µM where a hit was titrated. 260,000 tested, 0.57% active;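 active means above the screen mean plus three standard deviations and confirmed in dose response; inconclusive means results disagree or hit not tested in dose response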;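 further: Vif residues 1-94 fused to GST binding biotinylated APOBEC3G peptide 110-148; 0% = full assay without inhibitor and 100% = GST in place of GST-Vif; retest series ran down from 100 µM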
Bfl-1 A1 inh = inhibitors of the anti-apoptotic protein A1, read as caspase activation. 330,000 tested, 0.066% active. MEF A1-2A-BIM cells, Caspase-Glo 3/7 luminescence, 3 h; percent of clofoctol response, vehicle zero. AID 2462. caspase activation, % (test concentration not listed);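 active means over half of replicate activation scores above 10%, or exactly half above 10 with the replicate mean above 10; inconclusive means replicate mean below 10 yet half the replicates above 10; inactive means over half of replicates below 10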;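 further: wells of about 30 µL received 50 nL stock; many hits fall short of the cut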
E coli growth = blocks Escherichia coli growth; 330,000 tested, 0.21% active; OD600, 23 h; active compounds read low; OD600 absorbance (test concentration not listed);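 active means OD600 absorbance below the run mean of sample wells minus 3.6 SD, in any replicate, cut at about 0.56 in these data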;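 further: stock transfer was 300 nL into about 60 µL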
LANA-H2A inh = blocks KSHV LANA binding to histone H2A/H2B. 320,000 tested, 0.6% active. cell-free LANA-H2A/H2B peptide, fluorescence polarization. inhibition, % (test concentration not listed); in the data active means inhibition mostly above about 10%, no sharp cut-off; inactive means mostly below about 6.7%;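 further: stock transfer was 7.5 nL into about 10 µL; 0% = median of vehicle wells and 100% = median of positive control wells; one replicate is shown; the record names a cut of 25% in any replicate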
The depositor's hits bear a star; ? = inconclusive; nt = no result given; & = joins results of further samples.

SMILES | HNF4A DNA FP | B2AR ag | UCH37 DUB inh | Vif A3G | Bfl-1 A1 inh | E coli growth | LANA-H2A inh
COC(=O)c1cccc(NC(=O)CSc2nc(=O)cc(N)n2-c2ccccc2)c1 | 0.8 | -2 | 1.5 | 11% | -0.1 | 0.68 | 4.4
O=C(CSc1nc2cc(Cl)ccc2s1)N1CCN(C(=O)c2ccco2)CC1 | 0.7 | 5 | -0.4 | 67% | -1.0 | 0.65 | -5.1
CC(C)N1CCN(S(=O)(=O)c2ccc3ccccc3c2)CC1 | -1.2 | -8 | 6.2 | nt | -0.1 | 0.67 | -5.7
CCOc1ccc(NC(=O)c2ccc(N3CC4CC(C3)c3cccc(=O)n3C4)c(NC(=O)CCN3CCOCC3)c2)cc1 (stereo not drawn) | -4.0 | -1 | 4.4 | nt | 0.7 | 0.73 | -1.2
COc1cc2cnc(-c3ccccc3)cc2cc1OC | -0.5 | 4 | 0.8 | nt | 0.1 | 0.59 | -6.5
CC(C)c1ccccc1OCCNC(=S)NC(=O)c1cccnc1 | 0.8 | -1 | 5.5 | -1% | 1.3 | 0.71 | -9.9
C=CCn1c(SCC(=O)NCC2CCCO2)nc2scc(-c3ccccc3)c2c1=O (stereo not drawn) | 3.2 | -11 | 4.8 | -2% | -0.4 | 0.7 | 3.6
COc1ccc(CC2(CO)CCN(Cc3ccc4nsnc4c3)CC2)cc1 | 0.7 | -2 | 2.7 | 1% | 0.4 | 0.67 | 11
Cc1ccc(C(=O)N2CCc3ccccc32)cc1NC(=O)c1ccco1 | 5.9 | -8 | 1.3 | nt | -0.5 | 0.69 | -1.7
CCOc1ccc(N=C2C(=O)Nc3ccc(C)c(Br)c32)cc1 | 2.5 | -3 | 3.5 | nt | 2.0 | 0.69 | -4.2
Cc1cc(Cl)ccc1OCC(=O)Nc1ccccc1NS(=O)(=O)c1cccs1 | 0.4 | -5 | 2.9 | 16% | -0.5 | 0.68 | -2.2
O=C(NCC1CCCO1)c1c(O)c2c([nH]c1=O)CCCC2 (stereo not drawn) | -0.9 | -10 | 2.5 | 44% | -0.1 | 0.66 | -3.9
CCC/C=C1/CCCOC(C(=O)NCc2ccccn2)(C(F)(F)F)C1 (stereo not drawn) | 1.5 | -7 | 4.7 | nt | 0.4 | nt | -1.3
COC(=O)c1c(C)oc(C)c1S(=O)(=O)Nc1ccc(C(C)C)cc1 | -0.9 | 1 | 1.4 | 17% | 0.7 | 0.68 | -3.1
COc1cccc(-c2cc(C(=O)Nc3ccccc3SC)no2)c1 | -6.1 | 5 | -8.6 | 7% | 0.5 | 0.74 | 5.6
CO/N=C(\CS(=O)(=O)Cc1ccc(OC)cc1)c1ccc(Cl)cc1 | -0.1 | -3 | nt | -5% | 1.2 | nt | -5.9
COc1cc2c(OC(C)=O)c3c(c(-c4ccc5c(c4)OCO5)c2cc1OC)C(=O)OC3 | -1.0 | 59* | -14 | 5% | 0.1 | 0.74 | -10
CN1CCN(NC(=O)CSc2ccc(Cl)cc2Cl)CC1 | -4.2 | -6 | 1.1 | -5% | 0.2 | 0.69 | -13
CC(C)CNC(=S)NNC(=O)c1nn(C)cc1Cl | -0.7 | 7 | -1.6 | -3% | 0.0 | 0.71 | 6.6
Cc1cc(-c2ccc(C(C)C)c(S(=O)(=O)N3CCN(c4ccccn4)CC3)c2)on1 | 0.2 | 6 | 0.2 | -3% | -0.2 | 0.73 | 1.1
COc1ccccc1N1CCN(C(=O)c2cc(C3CC3)on2)CC1 | -1.8 | 2 | 5.4 | 24% | -0.2 | 0.78 | -1.9
CSc1ccccc1C(=O)Nc1ccccc1C(=O)N1CCCC1 | 1.6 | 1 | 3.2 | 8% | -0.2 | 0.68 | 2.5
CC(C)(C)C(=O)OCc1nc(-c2ccc(Cl)cc2)cs1 | 0.3 | 8 | 4.5 | -6% | -0.1 | 0.68 | -3.1
CC1(C)COC(c2cc3c(cc2Br)OCO3)OC1 | 1.6 | 6 | 3.8 | 2% | nt | 0.7 | nt
Cc1ccc(NC(=O)CN(C)C(=O)CNC(=O)c2cccs2)cc1 | -3.9 | 1 | nt | nt | -0.5 | nt | 2.0
CSc1ccc(/C=N/n2c(COc3ccccc3)n[nH]c2=S)cc1 | 3.3 | 0 | nt | -11% | 0.3 | nt | 0.7
NS(=O)(=O)c1ccc2nc(NC(=O)CS(=O)(=O)c3ccc(F)cc3)sc2c1 | 3.7 | 0 | 1.1 | nt | -0.9 | 0.62 | -1.8
Cc1cc(CN(C)C(=O)C2CCC(=O)N(CCc3ccccc3)C2)n[nH]1 (stereo not drawn) | -4.1 | -2 | 2.6 | nt | -0.3 | 0.71 | 7.2
COc1ccccc1/C=C(/C#N)C(=O)O | -0.8 | -4 | nt | -1% | ? | nt | 2.4
CCN(CC)S(=O)(=O)c1ccc(OC)c(NC(=O)C2CC(=O)N(c3ccc(C)cc3)C2)c1 (stereo not drawn) | -1.7 | 1 | -0.6 | -10% | 1.7 | 0.66 | -2.3
O=C(C1=NN[C@@H]2C(=O)N(c3cccc(F)c3)C(=O)[C@H]12)c1cnccn1 | -5.1 | 15 | 9.0 | ? | -1.6 | 0.69 | -3.2
COc1ccc(CNC(=O)CCSCc2cccc(Cl)c2)cc1 | -1.9 | 0 | 5.1 | nt | -0.7 | 0.74 | -6.6
Cc1cc(C)nc(N(C#N)CN2C(=O)c3ccccc3S2(=O)=O)n1 | -1.9 | 10 | -4.0 | 74% | 0.8 | 0.77 | 2.3
COc1ccc(C(CC(=O)NCC(OC)OC)NS(=O)(=O)c2ccc(Cl)cc2)cc1 (stereo not drawn) | -3.9 | 4 | -1.5 | -3% | -0.1 | 0.7 | 2.1
CS(=O)(=O)N1CCN(c2ccc(NC(=O)c3cccnc3Cl)cc2)CC1 | 2.8 | 1 | 2.8 | 0% | 0.3 | 0.7 | 4.5
CC1(C)CC(=O)C2=C(C1)C(c1cn(-c3ccccc3)nc1-c1ccccc1)C(C#N)=C(N)O2 (stereo not drawn) | -2.9 | -3 | 4.4 | 18% | 0.2 | 0.7 | -0.3
CCc1nc(N2CCN(S(=O)(=O)c3ccc(Br)cc3)CC2)c2c(C)c(C)sc2n1 | 0.1 | -8 | 3.9 | nt | -1.5 | 0.76 | 2.1
CCNC(=S)Nc1ccc(OC(F)(F)F)cc1 | -2.4 | 1 | 1.3 | -6% | -0.5 | 0.64 | -7.3
COc1ccc(CNC2CCN(Cc3ccccc3)CC2)cc1 | 1.0 | -8 | 4.2 | nt | 0.6 | 0.68 | 7.7
COc1cc(OC)cc(C(=O)NC(C(=O)NNC(=O)c2ccc(C)cc2)C(C)C)c1 (stereo not drawn) | 1.0 | -3 | 0.6 | nt | -0.8 | 0.67 | -0.8
OC(COCCOc1ccc(Br)cc1)CN1CCCCC1 (stereo not drawn) | -3.0 | 3 | 5.2 | 20% | -0.1 | 0.68 | 0.0
COc1cc(NC(=O)c2ccco2)c(OC)cc1NC(=O)CSc1ncc(-c2ccc(F)cc2)[nH]1 | 3.8 | -5 | -79 | -5%&-2% | 0.6 | 0.71 | 1.0
Cn1c(CN2CCCCC2)nc2cc([N+](=O)[O-])ccc21 | -1.9 | 4 | 4.1 | -14% | 0.1 | 0.7 | 2.6
O=C(O)/C(=C\c1ccccc1OC(F)F)c1ccc(-c2ccccc2)cc1 | 1.2 | 4 | -9.9 | nt | 3.0 | 0.64 | 0.1
COc1ccc(CCN(C)C(=O)CNC(=O)Cc2cccc3ccccc23)cc1OC | 0.4 | 0 | -2.8 | 4% | 0.8 | 0.74 | -5.2

Complete entries from above. Order of screens: HNF4A DNA FP | B2AR ag | UCH37 DUB inh | Vif A3G | Bfl-1 A1 inh | E coli growth | LANA-H2A inh
Listed for COc1ccccc1/C=C(/C#N)C(=O)O → -0.8 | -4 | nt | -1% | ? | nt | 2.4
Listed for CC(C)c1ccccc1OCCNC(=S)NC(=O)c1cccnc1 → 0.8 | -1 | 5.5 | -1% | 1.3 | 0.71 | -9.9
Listed for CSc1ccc(/C=N/n2c(COc3ccccc3)n[nH]c2=S)cc1 → 3.3 | 0 | nt | -11% | 0.3 | nt | 0.7
Listed for CCc1nc(N2CCN(S(=O)(=O)c3ccc(Br)cc3)CC2)c2c(C)c(C)sc2n1 → 0.1 | -8 | 3.9 | nt | -1.5 | 0.76 | 2.1

Carrying on.
SMILES | HNF4A DNA FP | B2AR ag | UCH37 DUB inh | Vif A3G | Bfl-1 A1 inh | E coli growth | LANA-H2A inh
COc1cc(OC)cc(C(=O)NC2CCCCCCC2)c1 | 2.5 | -6 | 1.1 | -3% | -0.3 | 0.7 | -1.4
CCOC(=O)CCSc1nc(-c2ccccc2)cc(C(F)(F)F)n1 | -2.8 | 8 | 7.4 | -2% | 1.4 | 0.73 | -6.2
Cc1ccc(C)n1-n1cnc2sc(-c3ccccc3)cc2c1=O | 14 | 6 | 1.7 | 6% | -0.6 | 0.67 | 3.5
CCOc1ccccc1C(=O)Nc1nnc(SCC(=O)N2CCOCC2)s1 | 0.5 | -8 | 2.1 | nt | 0.3 | 0.69 | 1.9
Cc1ccc(NC2c3ccccc3C(=O)N2c2cccnc2)cc1 (stereo not drawn) | 1.7 | -8 | 6.2 | nt | 0.2 | 0.68 | 4.4
O=C(/C=C\c1ccc(-c2cccc([N+](=O)[O-])c2)o1)N1CCOCC1 | -0.1 | -4 | 17 | 25% | -2.0 | 0.69 | 6.2
Cc1cc(C)nc(/N=C2\NC(=O)CC(C(=O)O)N2c2ccc(C)c(C)c2)n1 (stereo not drawn) | 0.5 | 0 | -0.1 | 2% | 1.5 | 0.66 | 1.8
COc1cc(S(=O)(=O)Nc2ccc3nc(C)sc3c2)ccc1NC(C)=O | 13 | 5 | 0.6 | 1% | 0.4 | 0.71 | nt
CC(C)Cc1ccc(C(C)C(=O)N2CCOCC2)cc1 (stereo not drawn) | 2.2 | -9 | 1.6 | -4% | 1.2 | 0.67 | 1.7
Cc1ccc(S(=O)(=O)NCCc2cccs2)cc1 | 2.0 | -4 | 1.3 | -7% | 0.1 | 0.65 | 11
COc1ccc(C(=O)c2c(C(F)(F)F)oc3c2C(=O)c2ccccc2C3=O)cc1OC | -0.2 | 8 | 16 | 3% | -0.1 | 0.72 | 3.8
Cc1ccccc1N1C(=O)C2C3C=CC(CC3)C2C1=O (stereo not drawn) | -1.8 | -8 | 3.1 | -4% | 0.3 | 0.63 | 2.4
O=C(Nc1cccc(F)c1)C1CC(=O)N(c2ccc(Cl)cc2)C1 (stereo not drawn) | 5.3 | -3 | 0.8 | -8% | 0.9 | 0.62 | 4.8
CC1=NCCN1CCNC(=O)Nc1cc(C)cc(C)c1 | 4.5 | -4 | 3.6 | nt | -0.4 | 0.7 | 3.6
COc1ccc(CNC(=O)C(C)N(C)Cc2cccc(F)c2)cc1 (stereo not drawn) | 3.2 | -3 | 5.8 | -5% | -0.3 | 0.64 | -9.7
C#CCOc1c(Br)cc(/C=C2/C(=O)ON=C2C)cc1OC | -1.6 | -5 | nt | -6% | -0.1 | nt | 2.2
COc1ccc(CNC(=O)CSc2nc3ccccc3n2C(C)=O)cc1 | 2.1 | -1 | 0.3 | -1% | 1.8 | 0.69 | 1.7
CSCCC(NC(=O)OC(C)(C)C)C(=O)Oc1ccc2c(=O)c(-c3ccc4c(c3)OCCO4)coc2c1 (stereo not drawn) | -1.0 | 4 | -37 | -1% | -9.4 | 0.7 | -8.3
Cc1ccc(N(CC(=O)NCC2CCCO2)C(=O)CNS(=O)(=O)c2ccc(Cl)cc2)cc1 (stereo not drawn) | 2.7 | 2 | -2.2 | -2% | -0.3 | 0.67 | 0.1
